Beta apoptosis = beta cell apoptosis inhibition; 300,000 tested, 0.8% active; INS-1E cytokine-induced death, ATP luminescence, 48 h; percent of positive-control rescue, neutral wells zero; protection from apoptosis, % (concentration not given with the values);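 active = all replicates at 75% or more, or half of them and the mean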;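 also: 0% = cytokine-treated negative control wells and 100% = positive control rescue; higher means more ATP so stronger rescue from cytokine killing; wells of about 40 µL received 100 nL stock; the first replicate is given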
T cruzi inh = blocks replication of Trypanosoma cruzi; T. cruzi beta-gal in NIH3T3, luminescence, 90 h; inhibition, % (no concentration beside the values); 300,000 tested, 1.4% active;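 active = mean inhibition across valid replicates above about 55%, limit read from the data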;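 also: signal also drops with host cell toxicity which is not excluded here; 0% = plate median of DMSO wells and 100% = zero luminescence signal; higher percent means less beta-gal luminescence so fewer parasites; stock transfer was 50 nL into about 50 µL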
UCH37 DUB inh = inhibitors of human deubiquitinating enzyme UCH37 | purified proteasome/UCH37, Ub-AMC cleavage fluorescence | inhibition, % (concentration not given with the values) | AID 588478 | Q9Y5K5 | 330,000 tested, 0.33% active;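 active = mean of two replicates above 20%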;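 also: 0% = compound-free wells with enzyme and 100% = wells lacking proteasome; stock transfer was 100 nL into about 20 µL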
Target sequence (Q9Y5K5 whole entry, looked up): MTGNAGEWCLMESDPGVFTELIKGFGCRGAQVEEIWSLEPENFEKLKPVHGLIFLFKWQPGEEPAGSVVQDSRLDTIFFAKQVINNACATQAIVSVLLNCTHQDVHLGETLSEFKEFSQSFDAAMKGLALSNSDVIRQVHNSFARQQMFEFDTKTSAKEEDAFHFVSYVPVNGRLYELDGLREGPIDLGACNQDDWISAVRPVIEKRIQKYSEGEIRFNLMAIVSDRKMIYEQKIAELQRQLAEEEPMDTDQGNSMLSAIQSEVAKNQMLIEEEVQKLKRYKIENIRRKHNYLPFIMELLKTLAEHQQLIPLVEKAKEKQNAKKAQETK
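Material: Human UCH37 enzyme supplied as purified proteasome complex | Schedule: 30 min compound-proteasome preincubation then 25 min substrate reaction, room temperature | Detection: AMC fluorescence from Ub-AMC cleavage, excitation 355 nm, emission 460 nm | Benchmarks: Wells without proteasome as full block, compound-free enzyme plus substrate as uninhibited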
Ecoli growth = E. coli growth inhibition; Escherichia coli growth, OD600, 23 h; active compounds read low; OD600 absorbance (no concentration beside the values); 330,000 tested, 0.21% active;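 active = OD600 absorbance below the run mean of sample wells minus 3.6 SD, in any replicate, cut at about 0.56 in these data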;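 also: stock transfer was 300 nL into about 60 µL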
MLL AF4-AF9 inh = MLL-AF4/AF9 protein interaction inhibition. inhibition, % at 10 µM. 350,000 tested, 0.47% active. AlphaScreen, biotin-AF4 peptide binding to FLAG-AF9;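 active = every replicate reaching a set inhibition limit, whatever the replicate mean, cut at about 25% in these data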;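 also: 0% = plate neutral control median and 100% = total signal loss; the record names both 10 and 1 µM as test concentration; the first replicate is given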
Target sequence (P42568 whole entry, looked up): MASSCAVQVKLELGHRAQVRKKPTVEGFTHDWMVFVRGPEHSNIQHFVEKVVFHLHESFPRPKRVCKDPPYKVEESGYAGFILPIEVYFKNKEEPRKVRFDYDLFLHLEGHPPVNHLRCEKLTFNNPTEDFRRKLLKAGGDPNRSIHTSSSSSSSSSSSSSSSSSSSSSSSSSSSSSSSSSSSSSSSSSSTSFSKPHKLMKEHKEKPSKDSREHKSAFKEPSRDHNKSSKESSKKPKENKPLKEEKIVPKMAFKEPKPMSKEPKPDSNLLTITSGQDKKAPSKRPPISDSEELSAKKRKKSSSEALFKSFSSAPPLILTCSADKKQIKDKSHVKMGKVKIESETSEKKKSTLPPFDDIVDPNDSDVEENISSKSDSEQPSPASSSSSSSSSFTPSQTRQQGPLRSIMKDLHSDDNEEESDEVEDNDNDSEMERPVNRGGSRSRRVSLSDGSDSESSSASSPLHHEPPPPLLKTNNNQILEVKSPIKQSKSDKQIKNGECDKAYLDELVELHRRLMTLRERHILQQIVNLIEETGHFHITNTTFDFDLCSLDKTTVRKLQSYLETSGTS
A1 inh = inhibitors of the anti-apoptotic protein A1, read as caspase activation; MEF A1-2A-BIM cells, Caspase-Glo 3/7 luminescence, 3 h; percent of clofoctol response, vehicle zero; caspase activation, % (concentration not given with the values); 330,000 tested, 0.066% active; AID 2462;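 active = over half of replicate activation scores above 10%, or exactly half above 10 with the replicate mean above 10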;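 also: wells of about 30 µL received 50 nL stock; many hits fall short of the cut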
rRNA inh HTS = selective bacterial rRNA inhibition in E. coli; E. coli WT GFP vs humanized-ribosome RFP mutants, fluorescence, 24 h; active compounds read low; DMSO median 0, no signal -100; GFP signal change (wild-type ribosome), % (test concentration not listed); 350,000 tested, 1.6% active; AID 720706;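 active = significant combined selectivity score with lowered wild-type GFP, culture density cut under 30%, mutant RFP and density less affected; inactive = any of these conditions unmet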; also: one replicate is shown; some compounds called inactive have numbers as strong as hits
FGF22 binding = shifts melting point of recombinant human FGF22; Q9HCT0; recombinant FGF22 thermal shift, SYPRO orange fluorescence; percent of sucrose octasulfate shift, DMSO zero; calls only at 9.99 µM; 340,000 tested, 1.5% active; AID 651658;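 active = melting point raised past a set limit in the mean and every replicate; three in four hits are not shown here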
Target sequence (Q9HCT0 whole entry, looked up): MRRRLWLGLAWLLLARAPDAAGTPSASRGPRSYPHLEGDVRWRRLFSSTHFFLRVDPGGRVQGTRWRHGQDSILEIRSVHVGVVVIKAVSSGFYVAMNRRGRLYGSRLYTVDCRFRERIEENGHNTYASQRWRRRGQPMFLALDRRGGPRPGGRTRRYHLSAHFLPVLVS
rRNA inh HTS OD600 = further read-out of rRNA inh HTS, marked with its call; OD600 change, %; measured here: OD600 growth;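 optical density of the mix in the first replicate; 0 = DMSO median and -100 = no signal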
rRNA inh HTS RFP = recorded beside rRNA inh HTS, whose call it bears; RFP signal change, %; measured here: RFP humanized mutant strains;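 first replicate; 0 = DMSO median and -100 = no signal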
* marks the source's active call; other numbers are inactive results; i = inactive; x = no result given.

Value order: Beta apoptosis | T cruzi inh | UCH37 DUB inh | Ecoli growth | MLL AF4-AF9 inh | A1 inh | rRNA inh HTS | rRNA inh HTS OD600 | rRNA inh HTS RFP | FGF22 binding
> CC(=O)Nc1ccc(NC(=O)C(C)OC(=O)c2cccc(S(=O)(=O)N3CCCCCC3)c2)cc1 (centres undefined)
→ 3 | -5 | x | x | -1.5 | -1.0 | -3 | -7 | 4.2 | i
> CC(C)(C)OC(=O)N1CCC[C@H]1C(=O)N/N=C/c1cccc2cccnc12
→ -2 | -26 | x | x | x | 0.0 | -3 | -1 | 1.8 | i
> c1ccc(-c2nnc(-c3ccccn3)c(-c3ccccn3)n2)nc1
→ 0 | -10 | 5.2 | 0.66 | -0.4 | -1.2 | -25 | -6 | -6.8 | i
> O=C(COC(=O)c1cncc(Br)c1)Nc1ccc2c(c1)OCO2
→ 1 | -6 | 0.8 | 0.72 | 0.9 | 0.2 | 6 | -1 | -2.4 | i
> Cc1nc(-c2ccccc2)cn(O)c1=O
→ x | -10 | -25 | 0.71 | -0.4 | x | 11 | 5 | -3.6 | i
> Cc1ccc(-n2c3c(c(=O)[nH]c2=O)C(C(F)(F)F)(C(F)(F)F)NC(=O)N3)cc1
→ -3 | -2 | 2.2 | 0.65 | x | -0.3 | 10 | 12 | 1.2 | x
> O=C(NC(NC(=S)N1CCOCC1)C(Cl)(Cl)Cl)c1ccc(Cl)cc1 (centres undefined)
→ -1 | 7 | -13 | 0.66 | x | -0.3 | x | x | x | x
> CSc1nnc(-c2cccc(NC(=O)c3ccccc3)c2)n1C
→ 1 | 4 | 4.8 | 0.71 | -1.6 | 1.1 | -11 | -2 | 2.2 | i
> O=C(NC1CCCCC1)C(c1ccccn1)N(C(=O)c1csnn1)C1CCCCC1 (centres undefined)
→ -4 | 3 | 4.6 | 0.64 | -2.3 | 1.3 | 13 | 10 | -1.2 | x
> C=CC[C@@H](CC(=O)NCCO)C(=O)N[C@@H](COC(=O)[C@@H](CC=C)CC(=O)OC(C)(C)C)Cc1ccccc1
→ 7 | x | 1.1 | x | x | 1.0 | -3 | -4 | -1.9 | i
> CCOC(=O)N1CCN(CC(=O)Nc2cc(OCC)ccc2OCC)CC1
→ -9 | x | -1.0 | 0.72 | x | -0.1 | x | x | x | x
> COc1ccc(/C=N/N2CCN(c3ccccc3OC)CC2)cc1Br
→ 8 | 5 | x | x | 27* | -4.0 | -8 | 0 | 0.0 | i
> Fc1ccc(C2=NNC(=NCc3ccccc3)SC2)cc1F
→ x | x | 7.5 | 0.72 | 3.2 | x | -5 | 24 | 5.6 | i
> CCOc1ccc(OCC)c(NC(=O)C2CCCN(S(=O)(=O)c3ccc(C)cc3)C2)c1 (centres undefined)
→ -5 | 5 | -0.1 | 0.66 | 1.0 | 0.0 | 12 | 3 | 1.2 | i
> CCOC(=O)NC(=O)/C(C=Nc1ccc(Cl)c(Cl)c1Cl)=C(\C)O
→ -8 | 12 | 3.8 | 0.72 | 0.3 | 0.1 | 5 | 2 | -1.4 | i
> CCOc1cc(S(=O)(=O)NCc2cccnc2)c(C)cc1C
→ 5 | 1 | -4.4 | 0.65 | -4.5 | 0.5 | 4 | 1 | -1.4 | x
> COc1ccc(CNC(=O)COC(=O)C(CCSC)NC(=O)c2ccco2)cc1OC (centres undefined)
→ 0 | x | 3.4 | 0.69 | -1.3 | 0.0 | 18 | 12 | 0.2 | i
> O=C(CNC(=O)C(c1ccccc1)c1ccccc1)N/N=C/c1ccc(O)c([N+](=O)[O-])c1
→ -3 | -6 | x | x | 11 | 0.7 | -20* | -0.9* | -2.2* | i
> COc1ccc(C2=CC(=O)C[C@H](c3ccc(F)cc3)C2)c(OC)c1
→ 7 | x | 3.7 | x | 7.2 | 0.6 | -24 | -35 | -17 | i
> CC(=O)c1ccc(-c2ccc(C(=O)N(C)Cc3nc4ccccc4c(=O)[nH]3)o2)cc1
→ -11 | x | -301 | 0.69 | 0.0 | 0.2 | 5 | 7 | 0.5 | i

Molecules shown so far with fluorine, in the order listed:
Value order: Beta apoptosis | T cruzi inh | UCH37 DUB inh | Ecoli growth | MLL AF4-AF9 inh | A1 inh | rRNA inh HTS | rRNA inh HTS OD600 | rRNA inh HTS RFP | FGF22 binding
> Cc1ccc(-n2c3c(c(=O)[nH]c2=O)C(C(F)(F)F)(C(F)(F)F)NC(=O)N3)cc1
→ -3 | -2 | 2.2 | 0.65 | x | -0.3 | 10 | 12 | 1.2 | x
> Fc1ccc(C2=NNC(=NCc3ccccc3)SC2)cc1F
→ x | x | 7.5 | 0.72 | 3.2 | x | -5 | 24 | 5.6 | i
> COc1ccc(C2=CC(=O)C[C@H](c3ccc(F)cc3)C2)c(OC)c1
→ 7 | x | 3.7 | x | 7.2 | 0.6 | -24 | -35 | -17 | i

(further entries)
Value order: Beta apoptosis | T cruzi inh | UCH37 DUB inh | Ecoli growth | MLL AF4-AF9 inh | A1 inh | rRNA inh HTS | rRNA inh HTS OD600 | rRNA inh HTS RFP | FGF22 binding
> O=C(NCc1ccccc1Cl)NCc1ccccc1Cl
→ -6 | -17 | 1.1 | 0.7 | 32* | 0.9 | 12 | 4 | -5.7 | i
> COc1ccc(N2C(=O)N3[C@H](c4ccc(Cl)cc4)[C@@H]4C(=O)N(C5CCCCC5)C(=O)[C@@H]4[C@]3(Cc3ccc(Cl)cc3)C2=O)cc1
→ -2 | 0 | 5.0 | x | -1.8 | -0.6 | 3 | 6 | 0.4 | i
> COc1ccc(C2CC(c3ccc(Br)cc3)=NN2C(=O)CN2CCCC2)cc1 (centres undefined)
→ 2 | 35 | 5.0 | 0.7 | 11 | 0.1 | -19* | 7.8* | 4.8* | i
> c1ccc(Cc2nnc3sc(-c4ccco4)nn23)cc1
→ -1 | -6 | 4.1 | 0.76 | -0.1 | -0.9 | 11 | 14 | 1.7 | i
> O=C(CN1C(=O)COc2ccccc21)NCCN1CCCC1
→ -2 | 5 | -0.4 | 0.69 | -3.1 | -0.5 | 18 | 5 | 2.9 | i
> Cc1cccc(C)c1-n1c(C)nn(CCOc2ccccc2)c1=O
→ 2 | -8 | 3.6 | 0.7 | -0.6 | 0.1 | -10 | 11 | 0.5 | i
> O=C(CN1CCC(C(O)(c2ccccc2)c2ccccc2)CC1)Nc1ccccc1
→ 5 | 17 | 3.6 | 0.69 | x | -0.7 | x | x | x | x
> CCC(CC)c1nc(C#N)c(NC(C)c2ccccc2)o1 (centres undefined)
→ -3 | -10 | 1.6 | 0.64 | 1.9 | 0.5 | x | x | x | i
> CCCCOC(=O)Nc1nnc(-c2ccccc2OC)s1
→ -1 | 12 | -0.3 | 0.69 | x | -1.2 | x | x | x | x
> Cc1ccc(Cl)cc1NC(=O)CCC(=O)O
→ -4 | -10 | 2.1 | 0.66 | -3.3 | 0.3 | 9 | 0 | 1.7 | i
> Cc1cccc(-n2ncc3c2CCCC3NC(=O)c2ccc[n+]([O-])c2)c1C (centres undefined)
→ -3 | -17 | 2.8 | 0.73 | 0.1 | 0.1 | 3 | 5 | -2.7 | i
> COc1ccc2nc(NC(=O)C3CCCO3)sc2c1 (centres undefined)
→ -1 | 0 | 1.3 | 0.66 | 0.8 | -3.2 | -4 | 0 | -4.6 | i
> CCCc1ccc2oc(C(=O)N3CCC(C(N)=O)(N4CCCCC4)CC3)c(C)c2c1
→ -4 | 29 | -1.1 | 0.74 | 1.7 | -0.5 | 0 | 0 | 0.0 | i
> Cc1c(NS(=O)(=O)c2cc(C(=O)NCc3cccnc3)ccc2Cl)c(=O)n(-c2ccccc2)n1C
→ 1 | x | 1.2 | 0.66 | -0.4 | -0.7 | 12 | 7 | -1.4 | i
> O=C(NCc1ccco1)c1cc2cc(Br)ccc2o1
→ 0 | -3 | 0.3 | 0.68 | 1.4 | -1.1 | -3 | -17 | -3.8 | i
> CC(C)CN(C(=O)COC(=O)c1ccccn1)c1c(N)n(Cc2ccccc2)c(=O)[nH]c1=O
→ 0 | -2 | -0.5 | 0.69 | -1.4 | 0.7 | 13 | 14 | -0.4 | i
> CC(C(=O)N1CCOCC1)(c1ccccc1)c1ccccc1
→ -3 | -11 | 0.4 | 0.64 | 6.1 | -0.2 | -6 | -6 | -2.8 | i
> COc1ccc2oc(C(=O)OCC(=O)NC(=O)c3ccccc3)c(C)c2c1
→ -4 | -11 | -13 | 0.69 | 0.2 | 1.1 | 15 | 16 | 4.7 | i
> CC12CCC(=O)N1C(C(=O)NCCc1ccccc1)CS2 (centres undefined)
→ 0 | -5 | 0.2 | 0.7 | 0.5 | 1.9 | 11 | 6 | -2.6 | i
> O=C(NC1CCc2ccccc21)c1cc(COc2c(F)cccc2F)on1 (centres undefined)
→ 5 | 11 | 0.1 | 0.69 | 0.0 | -0.1 | -9 | -11 | -2.3 | i

Going on with the list:
| structure | Beta apoptosis | T cruzi inh | UCH37 DUB inh | Ecoli growth | MLL AF4-AF9 inh | A1 inh | rRNA inh HTS | rRNA inh HTS OD600 | rRNA inh HTS RFP | FGF22 binding |
| --- | --- | --- | --- | --- | --- | --- | --- | --- | --- | --- |
| COc1cccc2c1CCC1=CC(=O)CCC12C (centres undefined) | x | x | 0.2 | 0.64 | -11 | x | -16 | -25 | 1.8 | i |
| CC(=O)Nc1ccc(S(=O)(=O)NCCC(=O)OCC(=O)NNC(=O)c2ccccc2)cc1 | x | -9 | 1.6 | 0.64 | -1.1 | 0.3 | 15 | 12 | 3.1 | i |
| Cc1ccc2c(NC(=O)c3ccc(Br)o3)cccc2n1 | 1 | -12 | -21 | 0.69 | -1.2 | -0.7 | 2 | 4 | -0.1 | i |
| CCOc1cc(N2CCOCC2)c(OCC)cc1NCC(=O)N1CCN(Cc2ccccc2)CC1 | -4 | 35 | 1.1 | 0.68 | 3.7 | -0.5 | 2 | 2 | 10 | i |
| CC(C)(C)n1nc2c(c1NC(=O)c1ccc([N+](=O)[O-])cc1)CS(=O)(=O)C2 | -6 | 1 | 2.7 | 0.64 | -5.0 | 0.0 | -3 | 8 | -3.3 | i |
| CN(CC(=O)NC1CCCCC1)S(=O)(=O)c1ccc(Br)s1 | -4 | 2 | 2.4 | 0.8 | x | -0.6 | x | x | x | x |
| Cc1cc(C)n(-c2cc(N3CCN(C(=O)c4ccccc4C)CC3)ccc2[N+](=O)[O-])n1 | 3 | -6 | 7.7 | 0.73 | x | -0.2 | x | x | x | x |
| Cc1ccnc(NC(=O)CCC(=O)N(CC(=O)NC2CCCCC2)CC2CCCO2)c1 (centres undefined) | -12 | 3 | -0.8 | 0.73 | x | 0.6 | x | x | x | x |
| CSc1ccccc1NC(=O)Cc1ccccc1[N+](=O)[O-] | -9 | x | 3.8 | 0.69 | 1.3 | 0.7 | -1 | -8 | -3.5 | i |
| O=C(CN(c1ccccc1)S(=O)(=O)c1ccc(F)cc1)NCc1cccs1 | -1 | x | 0.5 | 0.72 | -0.5 | 0.5 | 11 | 3 | -0.7 | i |

Some of the compounds tested; count on the stated rates, not on these rows.
